AID504770: growth inhibitors of E. coli YBA685 in a screen for V. cholerae RctB (chromosome II replication) inhibitors | E. coli YBA685 rctB-dependent plasmid, OD600 growth, 3 h; active compounds read low | z-score (concentration not given with the values) | 0.27% of 130,000 active;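 active = z-score under -2 on both plates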;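 note: wells of about 30 µL received 100 nL stock; score is relative to mean and SD of the test wells; the first replicate is given; strong numbers were not always called active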
Ba CapD inh: blocks the Bacillus anthracis CapD enzyme; z-score (test concentration not listed); 0.23% of 140,000 active; AID 492967; purified CapD enzyme, fluorescence intensity read-out; active compounds read low; some hits fall short of the stated cut;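 active = z-score under -4 in either of two replicates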;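 note: stock transfer was 100 nL into about 40 µL; score is relative to mean and spread of the plate; one replicate is shown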
Numbers without * were called inactive; . = not tested or not shown; & = joins results of further samples. An excerpt; rates above refer to the full screens.

SMILES	AID504770	Ba CapD inh
O=C(O)C(Cc1ccccc1)N1C(=O)c2ccccc2C1=O (stereo not given)	0.9	0.06
O=C(O)C1C2C=CC(C2)C1C(=O)NCCCN1CCOCC1 (stereo not given)	1.2	.
O=C(Cn1c2ccccc2c(=O)c2ccccc21)NCc1cc(C(F)(F)F)ccc1F	.	8.2
N#C/C(=C\Nc1cc(Cl)cc(Cl)c1)S(=O)(=O)c1ccccn1	0	-0.095
O=C(Nc1nccs1)c1cccc(S(=O)(=O)N2CCCC2)c1	-1.2	.
Cc1cc(-c2ccc(C)c(S(=O)(=O)N3CCCc4ccccc43)c2)on1	2	-1.9
COc1cc(/C=C/C(=O)O)cc(S(=O)(=O)NCCO)c1OC	-1.2	.
COc1cnc(-c2ccccc2)nc1Sc1ccc(Cl)cc1Cl	.	-0.11
CC(Oc1ccccc1)c1ccnn1S(C)(=O)=O (stereo not given)	-1	-0.47
COc1ccccc1NC(=O)C(C)Sc1nc(C)cs1 (stereo not given)	0.2	.
CCOc1ccc(C(C)NC(=O)c2c(C)noc2C)cc1OCC (stereo not given)	1.4	.
CCCNC(=O)Nc1ccc2c(c1)N(C)C(=O)c1ccccc1S2	-0.05	-0.67

Exported as labelled records: part of the list above
COc1ccccc1NC(=O)C(C)Sc1nc(C)cs1 (stereo not given)
  AID504770: 0.2
  Ba CapD inh: .
N#C/C(=C\Nc1cc(Cl)cc(Cl)c1)S(=O)(=O)c1ccccn1
  AID504770: 0
  Ba CapD inh: -0.095
CC(Oc1ccccc1)c1ccnn1S(C)(=O)=O (stereo not given)
  AID504770: -1
  Ba CapD inh: -0.47
O=C(O)C1C2C=CC(C2)C1C(=O)NCCCN1CCOCC1 (stereo not given)
  AID504770: 1.2
  Ba CapD inh: .

Later entries
SMILES	AID504770	Ba CapD inh
CCCCN(CC)S(=O)(=O)c1ccc(F)c(C(=O)Nc2ccc(Br)cc2F)c1	.	-0.33
COC(=O)c1cccc(NC(=O)/C=C/c2ccc3c(c2)OCO3)c1	3	7.5
COc1ccc(-c2noc(CC(=O)N(C)Cc3ccco3)n2)cc1	1.1	-0.48
O=C(CCN1CCc2ccccc2C1)c1ccc2c(c1)OCCO2	-0.85	-0.67
O=C(O)c1cc(S(=O)(=O)Nc2ccc(O)cc2)ccc1O	0.65	-0.4
O=C1CCCC2=C1C(Cc1ccccc1)C1=C(CCCC1=O)O2	0.45	.
Clc1cc2c(c(Cn3c4ccccc4c4nc5ccccc5nc43)c1)OCOC2	.	1
Cc1cc(Br)ccc1NCc1cccnc1	-0.55	-0.85
OC1(c2ccccc2)CN(c2ccc(Br)cc2)C2=[N+]1CCCS2 (stereo not given)	.	0.33
Cc1ccc(N2CCN(C(=O)C(c3ccccc3)c3ccccc3)CC2)cc1Cl	2.3	-0.59
O=S(=O)(c1cccc2nsnc12)N1CCc2ccccc2C1	.	-0.7
Oc1ccc2ccccc2c1CNn1cnnc1	0.3	34
O=c1[nH]nc(-c2ccc(F)cc2)cc1-c1ccccc1	-0.3	8.4
COc1ccc(NC(=O)OCc2ccccc2)cc1OC	-1.1	-0.7
CCOc1cccc(NC(c2ccccc2)P2(=S)OCC(C)(C)CO2)c1 (stereo not given)	.	-0.54
O=C(NCc1ccco1)c1ccc(-n2c(-c3ccccc3)cc3c2CCCC3)cc1	-0.5	-0.45
N#CCCN(CC1CCCO1)C(=S)NC1CC2C=CC1C2 (stereo not given)	2.1	0.58
COc1ccc(OCC(=O)N2CCC(C(N)=O)CC2)cc1	0.55	.
CCC(Sc1nnnn1-c1ccccc1)C(=O)NC1=NN=C(c2ccc(C)cc2)CS1 (stereo not given)	1.5	-1.3
CN(C(=O)c1cccc(F)c1)C(C)(C)C	1.6	0.2
CCN(CC)C(=O)Oc1c(I)cc(Cl)c2cccnc12	2.2	-0.04
Cc1nn(C)c2ncc3c(=O)[nH]n(C)c3c12	.	0.22
COc1ccc(CCN=Cc2cc(Br)ccc2O)cc1OC	.	-0.87
CSc1nc(-c2ccco2)nn1S(C)(=O)=O	2.5	2.7
Cc1ccc(Cc2c[nH]c(=S)s2)cc1	-1.3	.
CC1=NC2C(C=NN2c2ccccc2)C(SCC(=O)NCCc2ccc(F)cc2)=N1 (stereo not given)	-0.05	.
O=C(NCc1ccccc1OC(F)(F)F)c1ccc(C(F)(F)F)cc1	.	0.16
Cc1ccc(O)c(C2=Nc3ccccc3N=C(c3ccc(C(C)(C)C)cc3)C2)c1	.	0.71
CSc1ncc(C(=O)NCc2ccc(S(N)(=O)=O)cc2)n1-c1ccccc1	-0.4	.
Cc1cc(-c2nc(C(=O)/C=C/N(C)C)cs2)no1	-0.4	-3.3
Cc1ccc(C(=O)COC(=O)c2cnccn2)cc1C	-0.45	-0.095
Cc1c(C(=O)N2CCN(c3ccccn3)CC2)sc2ncnc(N3CCCCC3)c12	.	-0.48
COc1ccc2oc(C(=O)OCC(=O)N(C)C)c(C)c2c1	0.2	.
Cc1nc2sccn2c(=O)c1S(=O)(=O)N1CCc2ccccc21	-0.3	-3.2
COc1ccc(-c2noc(COc3ccc(Cl)cc3Cl)n2)cc1OC	.	-0.58
COc1cccc(C(=O)NC2CCSC2=O)c1 (stereo not given)	0.2	.
CSc1nc(C)cc(OCCO)n1	0.25	-0.67
Cc1nc(COc2cccc(Cl)c2)sc1-c1ccn[nH]1	0.45	-0.24
O=S(=O)(c1ccccc1)N1CCN=C1SCc1ccccc1	0.35	.
N/C(CC(=O)Nc1ccc2c(c1)OCCO2)=N\O	-0.05	.
O=C(O)CCN(Cc1ccco1)S(=O)(=O)c1ccc(Cl)cc1	2.7	0.24
CN(C)/N=C/c1ccc(OC(=O)c2ccccn2)cc1	0.4	.
COc1ccccc1OCC(=O)N1CCN(C(c2ccccc2)c2ccccc2)CC1	0.8	0.09
CCCN1C(=O)/C(=C/c2ccc(F)cc2)SC1=S	0.25	-0.45
COC(=O)C1=CNC=C(C(=O)OC)C1c1cccc2ccccc12	0.8	41
N#Cc1ccc(-c2ccc(Cl)c(Cl)c2)nc1Oc1ccc(F)cc1	.	0.025
O=C(CNc1ccccc1)N/N=C/c1cn(-c2ccccc2)nc1-c1cc2ccccc2o1	-0.5	.
COc1cc(-n2c(C)nc3cc(C(=O)NC4CCCCC4C)ccc32)cc(OC)c1OC (stereo not given)	.	0.38
CN(C)S(=O)(=O)Oc1cccc(C(=O)Nc2cccc(Cl)c2)c1	.	0.42
COC(=O)c1ccc(N=NN2CCCCCC2)cc1	-0.8	-3.2
Fc1ccc(-c2cn(-c3ccccc3)c(=Nc3ccccc3)s2)cc1F	.	0.32
O=C(CCNc1ccccc1)c1ccc(Cl)s1	0.9	0.56
CCCCc1cc(-c2n[nH]c(=S)o2)c2ccccc2n1	0.05	-1.1
Cc1nc2cc(NC(=O)c3ccc(S(=O)(=O)N(C)c4ccccc4)cc3)ccc2s1	.	-0.48
COc1ccc(-n2ccnc2)cc1	-1.6	-0.53
S=c1[nH]nc(C2CCCCC2)o1	2.7	.
Cc1nc(COc2ccc(/C(N)=N/OC(=O)N(C)C)cc2)cs1	-0.75	0.55
COc1ccc(NC(=S)NC(=O)c2oc3ccccc3c2C)c(OC)c1	0.45	0.42
CCCCC(O)(c1ccc(N(C)C)cc1)c1ccc(N(C)C)cc1	-0.75	3.6
Cc1cc(C)n(C(=O)COc2ccccc2)n1	0.4	0.26

Next structures follow:
SMILES	AID504770	Ba CapD inh
Cc1ccc(CC(=O)c2cccnc2)cc1	-0.4	0.42
CC(C)Sc1nc2c(c(=O)n1C1CCOC(C)(C)C1)C1(CCCCC1)Cc1ccccc1-2 (stereo not given)	.	0.56
CCc1ccc2nc(N3CCC(C(=O)NCc4ccccc4)CC3)sc2c1	-1.4	-0.2
Cc1cccc(C(=O)OCc2cncs2)c1	-0.1	0.71
COc1ccc(Cn2nnnc2CN2CCC(NC(=O)c3cccc(OC)c3)CC2)cc1	1	.
CCOC(CNC(=O)c1sc2ncn(CC(=O)Nc3cccc(C(F)(F)F)c3)c(=O)c2c1C)OCC	.	1.2
CSc1ccc(NC(=O)N2CCC(N3CCCCC3)CC2)cc1	-0.85	-0.095
COc1cc(OC)cc(C(=O)OCC(=O)Nc2ncccn2)c1	-0.55	.
CCc1ccc(NC(=O)c2cc3c(=O)[nH]c4ccccc4c3s2)cc1	-0.7	0.27
NC(=O)CN1/C(=C(/O)c2ccccc2)C(=O)c2ccccc2S1(=O)=O	-0.75	-2.1
COc1cc2c(cc1OC)C(C)=[N+](C)C(C)(C)C2	.	5.7
O=C1CN(C(=O)c2cc([N+](=O)[O-])ccc2Cl)c2ccccc2N1	.	-0.075
CCOC(=O)CSc1nc2cc(OC)c(OC)cc2c2nc(CCn3c(C)nc4ccccc43)nn12	1.5	-0.21
CC(C)NC(=S)NCc1cccs1	-0.75	0.43
COc1ccc(NC(=O)c2ccccc2NC(=O)c2ccccc2)cc1	.	0.25
Cc1cc(C)c(C)c(S(=O)(=O)N2CC(O)CC2C(=O)O)c1C (stereo not given)	-0.65	.
NC(=O)Nc1nc2cc(Cl)cc(Cl)c2[nH]c1=O	0.25	.
CCC1SC(CC)C(=O)N(CC(=O)NCc2ccc(F)cc2)C1=O (stereo not given)	-0.75	.
CN(C)S(=O)(=O)Nc1cccc(N)c1	2.2	0.11
C=CCn1nc2sc3ccccc3n2c(=O)c1=O	0.05	1.4
O=C(Nc1ccccc1C(=O)O)c1cc2ccccc2c(=O)o1	-0.1	-1.3
N/C(Cc1cc(Cl)cc(Cl)c1)=N\O	-1.2	-0.24
O=C1c2ccccc2C(=O)N1Cc1ccco1	0.25	0.005
CN(C)CCN1CCN(S(=O)(=O)c2cc(Br)c(Cl)s2)CC1	.	0.12
CSCCC(C(=O)O)n1c(O)c(/C=C2\C=Nc3ccccc32)sc1=S (stereo not given)	-0.35	-1.5
O=C(OCCN(C1=NS(=O)(=O)c2ccccc21)c1ccccc1Cl)C1CC(=O)N(c2ccccc2)C1 (stereo not given)	.	-0.085
O=C(O)CCC(=O)NCc1ccc2[nH]c3c(c2c1)CCCC3	-0.7	1.1
CCOC(=O)CN1CCN(c2ccc(F)cc2)CC1	-0.6	.
CCN(CC)C(=O)NCCN1C(=O)C2C3C=CC(C3)C2C1=O (stereo not given)	-0.3	0.16
Cc1ccc(-c2nnc(NCc3ccccc3)c3ccccc23)cc1S(=O)(=O)N1CCOCC1	.	-0.47
CCc1ccc2nc(NC3=NCN(Cc4ccccc4)CN3)nc(C)c2c1	2.5	-0.53
CCOCC(=O)Nc1ccc(C#N)cc1	-1.4	-0.46
CN(C)CCC=C1c2ccccc2C=Cc2ccccc21	-0.05	10&-0.11
O=C(c1ccc(F)cc1)N1c2ccccc2C=Cc2ccccc21	2.4	-0.27
COCCn1cnc2c1c(=O)n(Cc1ccc(C#N)cc1)c(=O)n2Cc1ccccc1	-0.95	.
O=C1NC(C2CCCCC2)Nc2ccccc21 (stereo not given)	-0.6	45

One compound at a time, from the list above. Order of values: AID504770	Ba CapD inh
O=C(O)CCC(=O)NCc1ccc2[nH]c3c(c2c1)CCCC3 is entered as -0.7	1.1
O=C1NC(C2CCCCC2)Nc2ccccc21 (stereo not given) is entered as -0.6	45
O=C(OCCN(C1=NS(=O)(=O)c2ccccc21)c1ccccc1Cl)C1CC(=O)N(c2ccccc2)C1 (stereo not given) is entered as .	-0.085
O=C(c1ccc(F)cc1)N1c2ccccc2C=Cc2ccccc21 is entered as 2.4	-0.27
CCN(CC)C(=O)NCCN1C(=O)C2C3C=CC(C3)C2C1=O (stereo not given) is entered as -0.3	0.16

New compounds follow:
SMILES	AID504770	Ba CapD inh
N#Cc1cc2c(N)c(C(=O)c3ccccc3)sc2nc1N	-0.55	-0.78
O=C(O)c1cccc(CSc2ncn[nH]2)c1	-0.2	0.57
CC(=O)Nc1nc2nccc(C)n2n1	-0.65	0.82
CCN(CC)C(=O)Cn1c(S(=O)(=O)Cc2ccccc2)nc2ccccc21	-0.95	-0.74
CCN(C(=O)CSc1ncc(C#N)c(N)n1)c1ccccc1	-0.25	0.35
COCCn1cc(C(=O)N2CCC3(CC2)OCCO3)c2c3ccccc3n(C)c2c1=O	-0.2	90
CC1=C(C(=O)OCc2ccccc2)C(c2cccc(Oc3ccccc3)c2)NC(=O)N1 (stereo not given)	.	0.09
COc1cc(/C=c2\sc3nc4ccccc4n3c2=O)ccc1OCc1ccc(C)cc1	.	0.09
Cc1nn(C)c(C)c1/C=C/C(=O)N1CCCSc2ccccc21	0.15	.
Cc1ccc2nc(CNCc3ccc(S(N)(=O)=O)cc3)cc(=O)n2c1	-0.15	.
CCCSc1nnc2c(n1)-c1cccc3cccc-2c13	-0.7	-1.4
CS(=O)(=O)N(CC(=O)N1CCCC1)c1cccc(Cl)c1Cl	-0.55	.
CCCCNC(=O)Sc1ccc2ccccc2c1	0.5	.
COc1ccc(C2C(N3C(=O)c4c(Cl)c(Cl)c(Cl)c(Cl)c4C3=O)C(=O)N2c2ccc(Cl)c(Cl)c2)cc1Br (stereo not given)	.	-0.24
O=C(COn1nnc2ccccc21)N1CCN(c2ccccc2)CC1	-0.35	.
Cc1ccc(C2OCC3(CO2)COC(c2ccc(C)cc2)OC3)cc1 (stereo not given)	0	-0.31
O=C1Sc2cccc3cccc1c23	-0.95	.
Cc1ccc2nc(Cl)c3cc(C(=O)N(CCN(C)C)Cc4ccco4)sc3c2c1	-0.05	69
O=C(Nc1ccc(N2S(=O)(=O)c3ccccc3S2(=O)=O)cc1)c1cccc(C(F)(F)F)c1	.	-0.55
Cc1cc(CN2CCC(C)CC2)cc(C)c1O	1.8	.
O=C(O)c1ccccc1C(=O)Nc1ccc2c(c1)OCCO2	-1	0.81
COc1cccc(-c2nc3c(c(SCC(=O)N4CCOCC4)n2)Cc2c(CO)cnc(C)c2O3)c1	-0.2	-0.88
COc1cccc(-c2cc(C(=O)Nc3ccccc3OC)c3ccccc3n2)c1	.	-1.1
CCOC(=O)c1cc2cnccc2nc1C	.	-0.51
CN(C(=O)C(C)(C)C)c1nnc(C23CC4CC(CC(C4)C2)C3)s1	-0.8	0.34
O=C(COc1ccc2c(c1)oc(=O)c1ccccc12)Nc1ccc(F)cc1	1.6	8.9

From PubChem BioAssay
